gsp ag: qHTS for Agonist of gsp, the Etiologic Mutation Responsible for Fibrous Dysplasia/McCune-Albright Syndrome: qHTS. gsp mutant cells, cAMP HTRF, 30 min; control for the full effect not named in the record. Potency, µM (series often up to 76.9 µM), for the others: at the top dose activation (cAMP increase), usual class: activators. hit rate 0.13% among 340,000. AID 624287, 2012; active = well fitted activation curve with a large enough effect; inconclusive = small, poorly fitted or top-dose-only effect, or another doubt; inactive = no such curve, though single readings can be large or run the other way; cell line not stated here;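 note: phosphodiesterase inhibitor Ro 20-1724 added with compounds to block cAMP breakdown; potency is the fitted concentration of half-maximal effect; nearly all actives have a fitted effect of over 60% in size; about a fifth of the inactives were tested at one dose only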
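Cells in DMEM/10% FBS with G418 were pretreated with compounds in DMSO plus […] (300 uM stock) for 30 min at 37C. cAMP was measured by HTRF (cAMP-d2 plus anti-cAMP antibody-K) after 30 min at room temperature.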
TRPV1 potentiator: HTS Assay for Compounds that Act as Potentiators of the Vanilloid Receptor 1; Transient receptor potential cation channel subfamily V member 1 (Homo sapiens), Q8NER1; TRPV1-expressing cells, Fluo-8 calcium influx, capsaicin EC20 potentiation; host cell line not named in the record; control for the full effect not named in the record; potentiation, % at 8.33 µM; hit rate 0.02% among 320,000; AID 540277, 2011; active means potentiation above 80%; inconclusive means 30% to 80%; inactive means below 30%; note: 0% is about no effect
Target sequence (Q8NER1 whole entry, looked up): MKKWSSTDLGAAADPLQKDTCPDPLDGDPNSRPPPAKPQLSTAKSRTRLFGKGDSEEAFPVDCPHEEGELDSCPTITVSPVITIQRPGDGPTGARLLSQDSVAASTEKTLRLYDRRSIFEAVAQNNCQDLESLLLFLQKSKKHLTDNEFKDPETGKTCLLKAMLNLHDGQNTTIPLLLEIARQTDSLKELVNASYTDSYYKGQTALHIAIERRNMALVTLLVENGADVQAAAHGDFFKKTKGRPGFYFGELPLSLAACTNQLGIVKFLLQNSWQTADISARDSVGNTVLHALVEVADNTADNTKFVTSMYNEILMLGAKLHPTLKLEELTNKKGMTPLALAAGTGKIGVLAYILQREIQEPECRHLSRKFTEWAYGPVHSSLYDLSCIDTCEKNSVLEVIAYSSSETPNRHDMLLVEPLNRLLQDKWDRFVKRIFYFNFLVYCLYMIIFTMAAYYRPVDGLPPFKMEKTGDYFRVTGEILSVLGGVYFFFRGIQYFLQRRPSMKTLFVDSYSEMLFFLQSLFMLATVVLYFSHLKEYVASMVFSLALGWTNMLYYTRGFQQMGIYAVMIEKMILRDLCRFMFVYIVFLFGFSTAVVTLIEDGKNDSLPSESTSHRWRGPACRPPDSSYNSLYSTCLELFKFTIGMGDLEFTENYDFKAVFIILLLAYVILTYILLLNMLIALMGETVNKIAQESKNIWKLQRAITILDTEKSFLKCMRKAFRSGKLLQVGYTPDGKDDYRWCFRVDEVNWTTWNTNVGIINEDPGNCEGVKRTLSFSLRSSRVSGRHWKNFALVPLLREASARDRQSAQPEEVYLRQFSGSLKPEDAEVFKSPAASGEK
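TRPV1-expressing cells were cultured overnight at 35.5C and loaded with Fluo-8 calcium dye for 40 to 90 min at room temperature. After a 10 s baseline, compound was added and calcium influx was read kinetically for 3 min (ex 480/em 520 nm).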
gsp antagonist: qHTS for Antagonists of gsp, the Etiologic Mutation Responsible for Fibrous Dysplasia/McCune-Albright Syndrome: qHTS | gsp-mutant cells, cAMP HTRF, 30 min; control for the full effect not named in the record | Potency, µM (highest dose often 76.9 µM), for the others: at the top dose activity change, negative = inhibition, most hits filed as inhibitors | hit rate 0.4% among 340,000; active = falling curve of any shape with a large fitted effect; inconclusive = falling curve, mostly with a smaller effect; inactive = flat or rising curve; cell line not stated here;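 note: intracellular cAMP measured with PDE inhibitor Ro 20-1724 present during compound exposure; potency is the fitted concentration of half-maximal effect; % is set by controls: 0 for no effect and ±100 for the full control effect; nearly all actives have a fitted effect of over 65% in size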
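HTRF cAMP measurement after 30 min RT detection following 30 min, 37C compound treatment alongside […] (added as 300 uM solution) in G418-selected cells seeded at 2000/well and grown 16–24 h.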
ClpP mod: qHTS Assay for Activators of ClpP; ATP-dependent Clp protease proteolytic subunit (Bacillus subtilis (strain 168)), P80244; hit rate 1.9% among 340,000; purified B. subtilis ClpP, FRET peptide cleavage, 20 min; Potency, µM (titrated, usually from 57.5 µM), without a hit: top-dose activity change, negative = active; AID 651965, 2013; active = well fitted falling curve with a large enough effect; inconclusive = small, poorly fitted or top-dose-only effect; inactive = no such curve, though single readings can be large or run the other way; note: potency is the fitted concentration of half-maximal effect; the source files actives as falling curves though it sought activators and does not explain the sign; nearly all actives have a fitted effect of over 65% in size; many hits overshoot -100%
Target sequence (P80244 whole entry, looked up): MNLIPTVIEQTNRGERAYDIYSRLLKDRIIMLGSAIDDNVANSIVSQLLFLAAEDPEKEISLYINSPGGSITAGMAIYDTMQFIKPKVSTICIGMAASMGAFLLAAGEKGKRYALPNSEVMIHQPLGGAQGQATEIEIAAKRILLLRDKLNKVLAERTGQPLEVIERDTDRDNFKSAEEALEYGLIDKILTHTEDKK
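FRET quenching reversal measured ClpP activation: 10 microg/mL B. subtilis ClpP at pH 8 with the FRET-FV decapeptide, read at 430 nm after 320 nm excitation. The 20-min minus 0-min signal was scaled between DMSO/no-enzyme wells and ADEP (5.8 microM final).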
Menin-MLL FL inh: qHTS Assay for Inhibitors Targeting the Menin-MLL Interaction in MLL Related Leukemias: Competition With Fluorescein Labeled MLL-derived Peptide; AID 1766, 2009; FP activity change, % at 61.4 µM; Fluorescence polarization, fluorescein-MLL peptide displacement from menin; 290,000 tested, under 10 active; inconclusive = falling polarisation curve, or a change in total fluorescence; inactive = total fluorescence flat and polarisation flat or rising; no compound was filed as active; the % refers to the polarisation; negative = inhibition;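 note: % of control where 0% means no effect; inhibitors lower the polarisation; unlabelled MLL peptide was the positive control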
CtBP-E1A inh: qHTS Assay for Inhibitors of the CtBP/E1A Interaction; CtBP / adenovirus E1A interaction (AlphaScreen); AlphaScreen GST-E1A/His-CtBP binding, 1536-well; active compounds read low; control for the full effect not named in the record; activity change, % (no concentration beside the values); hit rate 0.49% among 340,000; AID 651724, 2012; in the data active means activity change below about -65%; inconclusive means about -30% to -65%; inactive means above about -30%; note: % is set by controls: 0 for no effect and ±100 for the full control effect
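Protein mix (5X: 125 nM each GST-E1A, His-CtBP) was incubated with pinned compound 2 h at 37 deg C in dark, in 50 mM Tris pH 8.0 buffer with 300 mM NaCl. Glutathione donor and nickel acceptor beads followed; AlphaScreen signal read after 1 h.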
Sfp inh: qHTS Assay for Inhibitors of Bacillus subtilis Sfp phosphopantetheinyl transferase (PPTase); Biochemical Sfp PPTase activity, qHTS; Potency, µM, inactives show max response, negative = inhibition, usual class: inhibitors; 4'-phosphopantetheinyl transferase ffp (Bacillus subtilis), Q9F4F7; AID 1490, 2009; hit rate 3.5% among 310,000; active = well fitted inhibition curve with a large enough effect; inconclusive = small, poorly fitted or top-dose-only effect, or another doubt; inactive = no such curve, though single readings can be large or run the other way;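 note: the enzyme is Sfp with the accession as filed and its product quenches rhodamine fluorescence; potency is the fitted concentration of half-maximal effect; 0% = enzyme reaction without inhibitor and -100% = no enzyme wells; top concentration of the series not given in the record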
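With Hepes-Na pH 7.6 buffer containing 10 mM MgCl2, Sfp (15 nM) modified BHQ-2-YbbR (12.5 uM) using rhodamine-CoA (5 uM). Two reads 30 minutes apart at 525/598 nm yielded each well's rate.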
* = called active by the depositor; ? = inconclusive; nt = no result given; & = joins results of further samples; [ ] = dose if it differs, or a comment.

SMILES	gsp ag	TRPV1 potentiator	gsp antagonist	ClpP mod	Menin-MLL FL inh	CtBP-E1A inh	Sfp inh
C=CCNC(=O)c1oc2ccc(S(=O)(=O)N3CCCCC3)cc2c1C	20%	-17	2%	0.4%	nt	0	1%
CCOc1ccc(NC(=O)CN(C)C(=O)c2ccc(OCC(=O)N3CCOCC3)c(OC)c2)cc1OCC	-26%	nt	-3%	0.4%	nt	4	nt
COC(=O)c1ccc(Oc2c(Cl)cccc2[N+](=O)[O-])cc1	0%	2	-7%	1.1%	4.8	-6	-8%
CCc1cccc2sc(NC(=O)c3ccc(N4C(=O)CCC4=O)cc3)nc12	0%	-4	9%	-4.1%	3.0	5	7%
S=C(Nc1ccc(Oc2ccccc2)cc1)N1CCN(c2ccccn2)CC1	-3%[15.4 µM]	6	-43%	nt	-0.6	-8	?
CC(O)/C=C/c1cccc[n+]1C (centres undefined)	-23%	-3	0%	-1.3%	4.6	8	-21%
CC1CCCCN1CCCNC(=O)CN1C(=O)c2cccnc2Oc2ccccc21 (centres undefined)	?	17	15%	-3.1%&-2.7%	nt	1	7%
Oc1c(Br)cc(Br)c2cccnc12	nt	nt	0%	1.2%	-3.1	-78*	19%
Cc1ccccc1-n1c(SCC(=O)N/N=C/c2ccccc2OCC(=O)O)nc2ccccc2c1=O	6%[15.4 µM]	8	6%	nt	8.2	0	12%
O=Cc1sc(Nc2ccccc2)nc1Cl	0%	8	-6%	-5.4%	?	-8	12%
COC(=O)CSc1[nH]c2cc(C)ccc2c1[N+](=O)[O-]	1%[15.4 µM]	6	?	0.8%	2.9	0	0%
CSc1cccc(NC(=O)C2CCCN(S(=O)(=O)c3ccc(F)cc3)C2)c1 (centres undefined)	10%	8	-9%	0.6%	-0.8	0	17%
COc1ccc(C(=O)COc2ccc(F)cc2)c(O)c1	13%[15.4 µM]	-8	-4%	nt	0.3	15	14%
O=C1CC(NCCc2ccccc2)C(=O)N1CCc1ccccc1 (centres undefined)	-5%[15.4 µM]	3	16%	1.0%	-1.5	-6	5%
Oc1ccc(-c2cn3ccccc3n2)cc1O	17%	-6	-16%	-6.0%	-8.9	nt	?
Cn1c(N)c(C(=O)COC(=O)/C=C/c2ccc(S(=O)(=O)N3CCOCC3)cc2)c(=O)n(C)c1=O	?	-3	-5%	-0.2%	2.9	-4	-12%
O=C(O)COc1ccc2c3c(c(=O)oc2c1)CCCC3	-14%	1	9%	nt	1.3	0	26%
CCC1(c2ccccc2)NC(=O)N(CC(=O)Nc2ccc(S(=O)(=O)N3CC(C)CC(C)C3)cc2)C1=O (centres undefined)	-58%[inhibitor]	13	-1%	1.4%	nt	-2	nt
N#Cc1c(NC(=O)CSCC(=O)O)sc2c1CCCC2	-14%	-10	-9%	-2.2%	2.2	1	3%
Cc1cc(C)n2nc(Nc3ccccc3)cc2n1	-34%[inhibitor]	-10	6%	-3.6%	0.9	8	-5%
CCCc1cc(C(=O)Nc2ccc(C(=O)OC)cc2)cs1	-24%	-8	8%	-5.5%	-1.3	6	28%
CCOC(=O)CSc1nc(C)cc2c1C(=O)OC2	?	0	-11%	nt	-2.1	-2	9%
CCCCN(C)CCCNC(=O)CN1C(=O)COc2ccc(S(=O)(=O)N3CCOCC3)cc21	17%	9	-1%	-1.6%&0.8%	nt	nt	12%
CCN(CC)CCCNC(=O)c1cc2c(Cl)nc3ccccc3c2s1	30%	0	14%	-0.7%	-13	-21	5%
CN(C)/C=N/c1nc2ncc(-c3ccc(Cl)cc3)c(/N=C/N(C)C)n2n1	14%[15.4 µM]	-7	-14%	nt	-1.9	nt	22%
CC(=O)NCC(=O)OCC(=O)c1ccc(Cl)cc1	-2%	2	6%	-1.0%	6.1	nt	0%
COc1ccc(CCC(=O)Nc2cccc(S(=O)(=O)N(C)C)c2)cc1OC	14%[15.4 µM]	8	7%	-1.0%	3.1	-6	-5%
O=C(CCCC(=O)OCC(Cl)=C(Cl)Cl)Nc1cccc2ccccc12	-3%[15.4 µM]	25	-14%	-0.5%	0.1	0	13%
Cc1nn(-c2ccccc2)c(N2CCCC2)c1/C=C1\N=C(c2ccccc2)OC1=O	3%[15.4 µM]	3	-5%	nt	?	-10	11%
COc1ccc(NC(=O)Nc2nnc(Cc3ccc(OC)c(OC)c3)s2)cc1	3%	4	9%	0.8%	-1.4	-7	-3%
Cc1ccc2nc(-c3ccc(NC(=O)CN4CCN(c5ccccn5)CC4)cc3)sc2c1	1%[15.4 µM]	4	-1%	nt	3.2	2	3%
O=c1cc(C(F)(F)F)nc(SC/C=C/c2ccccc2)[nH]1	-11%	?	?	0.5%	-0.2	nt	8%
CN(C)/C=C1\C(=O)N(C)N=C1C(F)(F)F	-24%	-1	8%	nt	-1.2	0	11%
COc1cc(C2NC(=O)NC3=C2C(=O)OC3)cc(OC)c1OC (centres undefined)	-43%[inhibitor]	7	8%	-0.9%	?	4	7%
COc1ccc2cc(S(=O)(=O)c3ccccc3)c(=O)oc2c1	8%	-9	0%	3.2%	1.6	nt	10%
O=C(Nc1ccnc(-c2ccncc2)n1)c1cccs1	5%	-9	13%	0.0%	-1.7	11	10%
N#Cc1ccc(NC(=O)COC(=O)C2Cc3ccccc3CN2C(=O)c2ccccc2)cc1 (centres undefined)	-4%[15.4 µM]	5	6%	0.4%	-1.6	12	-17%
O=C(CN1CCC(n2nnc3cc(F)ccc32)CC1)Nc1ccc2c(c1)CCC2	-35%	-4	-2%	14µM*	3.0	-1	5%
Cc1ccc(S(=O)(=O)N2CCN(C(=O)C(C)Cn3nc(C)c(C)c3C)CC2)cc1 (centres undefined)	-18%[15.4 µM]	0	1%	nt	1.2	7	25%
COc1ccc(CCNC(=O)C(C)Sc2ccc(C)cc2)cc1OC (centres undefined)	14%[15.4 µM]	-27	-5%	-1.9%	-1.8	9	-10%
O=C(NCCN1C(=O)C2C3C=CC(C3)C2C1=O)Nc1ccccn1 (centres undefined)	-36%[inhibitor]	2	6%	-4.0%	-2.4	-15	8%
CC(C)(C)NCCOc1ccc(Br)cc1	-5%	25	2%	-1.5%	4.4	5	-11%
O=C1CN(C(=O)COC(=O)c2ccc(Cl)c(S(=O)(=O)N3CCCCC3)c2)c2ccccc2N1	17%	nt	-24%	-0.5%	nt	nt	nt
COC(=O)c1cc2cc(NS(=O)(=O)c3ccc(C)cc3)ccc2s1	20%	30	-19%	-2.1%	0.3	1	2%
O=C(Nc1cc(Br)ccc1O)c1cc(-c2cccs2)on1	-22%	1	9%	nt	nt	4	-5%
CCOc1ccccc1NC(=O)CSc1nc2cccnc2n1C	-1%	-10	-21%	0.9%	-1.3	-4	22%
CCC(=O)NC(=S)Nc1ccc(NC(=O)c2ccc(C)c([N+](=O)[O-])c2)cc1	-27%	-20	?	1.8%	nt	2	-15%
Cc1ccc(-c2ccc(=O)n(CCC(=O)N3CCN(Cc4ccccc4)CC3)n2)cc1	65%	-3	-15%	nt	-3.3	0	3%
CCn1ccc2c(OCC(=O)NCCc3ccc(OC)c(OC)c3)cccc2c1=O	21%[15.4 µM]	-11	-11%	nt	nt	5	nt
C/C(COc1ccccc1)=N\NC(=O)c1nnn(-c2nonc2N)c1-c1ccc(C)cc1	-25%	nt	nt	-1.3%	nt	-6	nt
Brc1ccc(N/N=C(/N=Nc2nn[nH]n2)c2ccccc2)cc1	-1%	5	22µM*	1.9%	?	nt	-96%
O=C(CSc1nc(=O)n2ccccc2n1)NCc1ccc(F)cc1	28%[15.4 µM]	2	1%	-1.6%	nt	1	nt
CC1(C)C(=O)OC(c2cccc([N+](=O)[O-])c2)C2(CCCCC2)C1=O (centres undefined)	-43%	-6	-17%	-0.3%	-0.4	7	16%
O=C(CSc1nnc(COc2ccccc2)o1)NCCc1ccccc1	?	-6	-11%	-1.3%	0.9	0	21%
C/C=C(/C)C(=O)OC1CC(C)(C)C[C@H]2C3=CC[C@@H]4[C@@]5(C)CCC(O[C@@H]6O[C@@H](C(=O)O)[C@@H](O)C(O[C@@H]7OC[C@H](O)[C@@H](O)[C@@H]7O[C@@H]7OC(CO)C(O)[C@@H](O)[C@@H]7O)C6O[C@@H]6OC(CO)C(O)C(O)C6O)[C@@](C)(CO)[C@@H]5CC[C@]4(C)[C@]3(C)CC(O)[C@@]12CO (some centres undefined)	nt	nt	50µM*	0.7%	nt	-1	nt
Cc1ccccc1NCC(=O)N/N=C/c1ccc([N+](=O)[O-])cc1	1%	-5	3%	1.3%	-0.1	-22	-7%
Cc1ccc(S(=O)(=O)N2CCCC(c3nc4c(nnn4Cc4ccc5c(c4)OCCO5)c(=O)[nH]3)C2)cc1 (centres undefined)	-18%	1	22%	1.7%	nt	nt	-1%
Cc1ccc(N2NC(=O)/C(=C/c3ccc(-c4ccc(Cl)c(C(=O)O)c4)o3)C2=O)cc1C	-5%	5	6%	-3.1%	-1.6	4	11%
CCOC(=O)c1[nH]c(C)c(C(=O)OCc2ccccc2F)c1C	4%[15.4 µM]	10	3%	-2.7%	-0.8	-11	-19%
O=C(NCCCN1CCOCC1)c1sc2cc(Cl)ccc2c1Cl	4%[15.4 µM]	-2	nt	nt	-11	0	9%
CCOC(=O)c1[nH]nc2c1C(=O)N(CC)C2=O	0%	6	2%	-7.0%	-1.3	9	-4%

Assay outcomes (PubChem)
